NS1 function inh: blocks influenza NS1 protein function. S. cerevisiae slowed by influenza A NS1, growth recovery by OD600. Potency, µM (doses to about 46.1 µM), without a hit: top-dose activity, positive = more growth. 0.4% of 270,000 active; active means well fitted rising curve with a large enough effect; inconclusive means small, poorly fitted or top-dose-only effect; inactive means no such curve, though single readings can be large or run the other way; also: nearly all actives have a fitted effect of over 50% in size
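Recovery from NS1-induced slow growth read by OD600 in budding yeast switched to galactose assay medium (pH 6.0, -URA) at 1:100 dilution. Compound 23 nl per well; the matching strain lacking NS1 serves as control.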
RE007 growth inh: less growth of the S. pombe RE007 Vpr strain. S. pombe RE007 Vpr strain, BacTiter-Glo ATP luminescence, 24 h; control for the full effect not named in the record. AID 651644. Potency, µM (highest dose often 92.2 µM), inactives show at the highest dose activity change, negative = less growth. 0.21% of 360,000 active; active = well fitted falling curve with a large enough effect; inconclusive = small, poorly fitted or top-dose-only effect; inactive = no such curve, though single readings can be large or run the other way;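 also: % is scaled to controls: 0 for no effect and ±100 for the full control effect; nearly all actives have a fitted effect of over 50% in size; the assay follows cell death caused by Vpr and the record does not say whether a fall means rescue or toxicity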
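Fission yeast strain RE007, carrying one chromosomally integrated HIV-1 vpr copy, was seeded at OD 0.01 in PMG+AL medium with 23 nL pinned compound. After 24 h at 30 °C and 99% humidity, viability was read by BacTiter-Glo luminescence.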
Cruzain Triton: inhibitors of Trypanosoma cruzi cruzain with detergent; P25779; Potency, µM, without a hit: max response, negative = inhibition, hits mostly inhibitors; purified cruzain, Z-FR-AMC fluorescence, 0.01% Triton; AID 1478; 0.43% of 200,000 active;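 also: plate controls were neutral wells for no effect and buffer without enzyme for full effect; nearly all actives have a fitted effect of over 40% in size; top concentration of the series not given in the record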
Target sequence (P25779 123-467 limits assumed): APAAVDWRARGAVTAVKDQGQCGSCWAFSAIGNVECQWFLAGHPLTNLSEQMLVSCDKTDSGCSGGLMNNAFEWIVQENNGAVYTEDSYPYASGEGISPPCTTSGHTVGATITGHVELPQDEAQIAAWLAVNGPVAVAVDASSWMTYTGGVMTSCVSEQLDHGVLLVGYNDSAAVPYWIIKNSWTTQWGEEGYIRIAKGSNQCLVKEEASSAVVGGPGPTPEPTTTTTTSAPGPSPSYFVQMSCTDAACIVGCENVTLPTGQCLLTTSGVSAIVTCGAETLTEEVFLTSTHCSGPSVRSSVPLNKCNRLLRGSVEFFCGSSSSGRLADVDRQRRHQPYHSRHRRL
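Sodium acetate buffer (100 mM, pH 5.5) containing 5 mM DTT and 0.01% Triton X-100 hosted 1.5 nM cruzain and test compound for 15 min at room temperature. Cleavage of 2 uM Z-FR-AMC was then tracked by fluorescence.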
Cruzain noTriton: blocks cruzain activity in detergent-free assay. P25779. AID 1476. purified cruzain, Z-FR-AMC fluorescence, no detergent. 2.3% of 200,000 active. Potency, µM, for inactives: max response, negative = inhibition, actives largely listed as inhibitors;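 also: plate controls were enzyme without inhibitor for no effect and buffer without enzyme for full effect; nearly all actives have a fitted effect of over 40% in size; top concentration of the series not given in the record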
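Purified cruzain at 1.5 nM, pre-incubated 15 min with compound at room temperature in 100 mM sodium acetate pH 5.5, 5 mM DTT, 0.00005% Triton X-100. Reaction started with 2 uM Z-FR-AMC; AMC fluorescence increase over 60 s gives rate.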
Lassa entry inh: Lassa virus entry inhibition; Lassa virus pseudotype entry inhibition, cell reporter; control for the full effect not named in the record; Potency, µM (series often up to 37.9 µM), without a hit: top-dose activity change, negative = inhibition, actives largely listed as inhibitors; 1.2% of 300,000 active; AID 540256; active means well fitted inhibition curve with a large enough effect; inconclusive means small, poorly fitted or top-dose-only effect, or effect the other way; inactive means flat fitted curve, though single readings scatter; tested in HEK293 cells; also: % is scaled to controls: 0 for no effect and ±100 for the full control effect; nearly all actives have a fitted effect of over 50% in size; luciferase read-out
MARV entry inh: blocks Marburg virus binding to or entry into cells. Marburg virus pseudotyped entry inhibition, cell reporter; control for the full effect not named in the record; about a third of the inactives were read at about 46 µM. Potency, µM (doses to about 37.8 µM), inactives show at the highest dose activity change, negative = inhibition, most hits filed as inhibitors. 1.8% of 300,000 active. AID 540276; active = well fitted inhibition curve with a large enough effect; inconclusive = small, poorly fitted or top-dose-only effect, or effect the other way; inactive = flat fitted curve, though single readings scatter; tested in HEK293 cells; about a fifth of its hits are not listed in these tables; also: % is scaled to controls: 0 for no effect and ±100 for the full control effect; luciferase read-out
SARS PLpro yeast: SARS-CoV PLP inhibition in yeast. S. cerevisiae expressing SARS-CoV PLpro, growth rescue; control for the full effect not named in the record. Potency, µM (highest dose often 32.9 µM), without a hit: at the top dose activity, positive = growth rescue. 0.19% of 330,000 active. AID 485353; active means well fitted rising curve with a large enough effect; inconclusive means small, poorly fitted or top-dose-only effect; inactive means no such curve, though single readings can be large or run the other way; also: 0% is about no effect; nearly all actives have a fitted effect of over 55% in size; growth read by luminescence after 48 h
2A StopGo: lowers the luciferase signal of an FMDV 2A StopGo reporter; human cells with a luciferase reporter of 2A StopGo recoding; control for the full effect not named in the record; Potency, µM (top dose mostly 57.9 µM), without a hit: at the highest dose signal change, negative = less light; 1.2% of 410,000 active; AID 1159524; active = well fitted falling curve with a large enough effect; inconclusive = small, poorly fitted or top-dose-only effect; inactive = no such curve, though single readings can be large or run the other way; tested in HEK293T cells; also: % is scaled to controls: 0 for no effect and ±100 for the full control effect; nearly all actives have a fitted effect of over 45% in size; luciferase light after 4 h
An asterisk follows results filed as active; ? = inconclusive; . = not tested or not shown; & = joins results of further samples; [ ] = dose if it differs, or a comment. Unless noted, calls follow the shape of the dose curve; as a rule, active = well fitted curve in the direction sought with a large enough effect; inconclusive = small, poorly fitted or top-dose-only effect, or another doubt; inactive = no such curve, though single readings can be large; an effect the other way counts as inactive or inconclusive. Potency is read from the fitted curve at half-maximal effect. Outcome played no part in choosing rows (roughly 4.7% active in at least one column).

SMILES	NS1 function inh	RE007 growth inh	Cruzain Triton	Cruzain noTriton	Lassa entry inh	MARV entry inh	SARS PLpro yeast	2A StopGo
Cc1ccc(C)n1CCN1CCN(C(=O)c2ccco2)CC1	9%	6%	1.0%	-7%	-2%	-3%[46.1 µM]	-4%	-6%
CC(=O)Nc1ccc(N2C(=O)CC(Sc3nccc(C)n3)C2=O)cc1 (stereo not given)	-4%	6%	.	.	0%[46.1 µM]	-6%[46.1 µM]	-7%	-12%
CCCc1nn2c(=O)cc(CSCC(=O)Nc3ccc(F)cc3)nc2s1	4%	-7%	.	.	.	.	15%	2%
CC(C)(C)OC(=O)NCc1ccc(CNC(=O)c2[nH]cnc2C(=O)NCC(=O)OCc2ccccc2)cc1	5%	-6%	.	.	.	.	7%	28µM*
Cc1csc(Nc2nc(N)c(C(=O)Nc3cc(Cl)ccc3F)o2)n1	5%	-2%	.	.	-30%	-4%	0%	5%
CCC(=O)Nc1nnc(SCC(=O)Nc2cccc(Cl)c2)s1	-1%	22%	.	.	2%	3%	1%	-10%
CC(C)(C)c1ccc(-n2ncc3c2CCCC3NC(=O)C2(C(N)=O)CC2)cc1 (stereo not given)	13%	-4%	.	.	.	.	3%	?
CCN(CC)CCN(Cc1cc2cc(C)c(C)cc2[nH]c1=O)C(=S)NCc1ccco1	-9%	-21%	.	.	-26%	?	-2%	-15%
COc1ccc(CCNC(=O)CCCN2C(=O)c3ccccc3C2=O)cc1	-1%	3%	.	.	-29%	-5%[46.1 µM]	-1%	1%
O=C(NCCN1CCN(c2ccccc2)CC1)c1cccc(Cl)c1	1%	4%	.	.	.	.	0%	-16%
COc1cc(C(=O)NC2CCN(CC(=O)NC3CCCCC3)CC2)cc(OC)c1OC	-2%	-3%	.	.	.	?	0%	13%
Cc1cc(C)c(NC(=O)c2cc(S(=O)(=O)NCCC3=CCCCC3)ccc2F)c(C)c1	.	.	0.3%	1%	1%[46.1 µM]	.	.	1%
COc1ccc(C(=O)CSc2nc(C)cc(C)n2)cc1C	-15%	-2%	.	.	.	.	-5%	12%
CCCCOC(=O)Nc1nc(C)c(C(=O)OCC)s1	-55%	22%	2.2%	-22%	-12%	1%	.	22%
CCOc1ccc(NC(=O)c2ccc(NC(=S)NC3CC3)cc2)cc1	.	-12%	.	.	13%	0%[46.1 µM]	0%	23%
O=C(/C(=N\O)n1cncn1)c1ccc(Br)cc1Br	-6%	2%	-1.2%	1%	9%	-23%	-2%	0%
NC(=O)COC(=O)CCCc1nc2ccccc2s1	1%	3%	2.3%	20%	13%	-3%	-1%	-8%
CC(C)(C)c1ccc(C(=O)NCc2nnc(SCC(=O)NC3CCCC3)o2)cc1	13%	-15%	.	.	-11%	-5%	4%	-25%
COc1ccccc1CNC(=O)CN(C)S(=O)(=O)c1ccc(F)cc1	-1%	-5%	.	.	-12%	-4%[46.1 µM]	-1%	-16%
CCOc1ccc(N/C(C)=C/C(=O)c2ccc3c(c2)OCCO3)cc1	-5%	2%	.	.	?	?	1%	5%
O=C(c1cnn(C(=O)COc2ccccc2F)c1)c1cc(F)ccc1O	-4%	-1%	.	.	1%[46.1 µM]	2%[46.1 µM]	0%	-10%
CC(/C(O)=C(\C#N)c1nc2ccccc2n1C)N1C(=O)c2ccccc2C1=O (stereo not given)	0%	.	-0.6%	3%	.	-3%	2%	.
CC1(C)CC(=O)C(C=Nc2cccnc2/N=C/C2=C(O)CC(C)(C)CC2=O)=C(O)C1	-7%	-12%	.	.	-13%[46.1 µM]	0%[46.1 µM]	-2%	-6%
COc1ccc(-c2cn3c(n2)sc2cc(C(=O)NC4CCCCC4)ccc23)cc1	.	.	-3.2%	-4%	8%[46.1 µM]	.	.	8%
Cc1ccc(S(=O)(=O)N(C)c2ccc(OCC(=O)OCC(=O)N(CC#N)c3ccccc3)cc2)cc1	.	21%	.	.	7%	-5%	0%	9%
C(=NN1CCCCCC1)c1c[nH]c2ccccc12	.	-12%	.	.	4%[46.1 µM]	6%[46.1 µM]	.	33%[activator]
CCN(CC)CCCNC(=S)N1CCN(c2nc(-c3ccccc3)cs2)CC1	27%	-26%	.	.	-15%[46.1 µM]	?	1%	-25%
COc1cccc(NC(=O)c2sc3nc(C)c(C(=O)Nc4ccc(C)cc4C)c(-c4ccc(C)o4)c3c2N)c1	.	.	-2.6%	-7%	?	?	.	4%
COC(=O)c1ccc(OC(=O)c2ccc(OCc3c(C)noc3C)c(OC)c2)cc1	5%	.	2.0%	0%	.	.	7%	.
COC(=O)C1=CN(C)C=C(C(=O)OC)C1c1ccccc1Cl	4%	-1%	-7.1%	-22%	-2%	-3%[46.1 µM]	-20%	3%
Cc1ccc(C(=O)NNC(=O)CCn2nnc3ccccc32)cc1	2%	2%	.	.	5%[46.1 µM]	?	-1%	1%
Cc1ccc(C)c(C(=O)CN2C(=O)NC3(CCC(C)CC3)C2=O)c1 (stereo not given)	12%	-16%	-2.2%	-11%	?	-1%	5%	-11%
CN(C)CCOC(=O)NC12CC3CC(CC(C3)C1)C2	2%	-2%	.	.	-27%[46.1 µM]	-15%[46.1 µM]	1%	-15%
Cc1cc(NC(=O)Cn2cc(C(F)(F)F)cc(Cl)c2=O)no1	-5%	-2%	-1.2%	8%	9%	20%	1%	9%
COc1ccc(OC)c(C2=Nn3c(nnc3-c3cc(C)[nH]n3)SC2)c1	1%	17%	.	.	?	?	-1%	-16%
O=C(COc1ccc(S(=O)(=O)N2CCCCC2)cc1)NCc1ccccn1	4%	-17%	.	.	8%	3%[46.1 µM]	0%	-5%
CC1CN(C(=O)CCC(=O)NCc2ccccc2)c2cc(Cl)ccc2O1 (stereo not given)	7%	2%	-2.6%	7%	5%[46.1 µM]	-1%[46.1 µM]	-6%	-23%&-11%
CCN(Cc1ccccc1)C(=O)Cn1c(=O)n(-c2ccc(OC)cc2OC)c(=O)c2c(C)c(C)sc21	.	-11%	-2.2%	-14%	-2%[46.1 µM]	-27%&-27%[46.1 µM]	-7%	-2%&-12%
CCOC(=O)c1cc(C)nn1-c1nc(Cl)cc(OC)n1	-22%	1%	0.7%	13%	1%	?	11%	-11%
CC(C)(C)NC(=O)Cn1c(=O)c(=O)n(Cc2ccccc2)c2ccc(Cl)cc21	2%	-3%	0.2%	-16%	1%	26%	-6%	6%

Two of these compounds, set out differently.
CC1(C)CC(=O)C(C=Nc2cccnc2/N=C/C2=C(O)CC(C)(C)CC2=O)=C(O)C1
  NS1 function inh: -7%
  RE007 growth inh: -12%
  Cruzain Triton: .
  Cruzain noTriton: .
  Lassa entry inh: -13%[46.1 µM]
  MARV entry inh: 0%[46.1 µM]
  SARS PLpro yeast: -2%
  2A StopGo: -6%

Cc1cc(NC(=O)Cn2cc(C(F)(F)F)cc(Cl)c2=O)no1
  NS1 function inh: -5%
  RE007 growth inh: -2%
  Cruzain Triton: -1.2%
  Cruzain noTriton: 8%
  Lassa entry inh: 9%
  MARV entry inh: 20%
  SARS PLpro yeast: 1%
  2A StopGo: 9%

Going on with the list:
SMILES	NS1 function inh	RE007 growth inh	Cruzain Triton	Cruzain noTriton	Lassa entry inh	MARV entry inh	SARS PLpro yeast	2A StopGo
Cc1ccsc1C(=O)NNC(=O)Nc1ccc(Cl)c(Cl)c1	7%	1%	7.6%	-4%	10%	8%	-1%	41%[activator]
COc1ccc(-c2nc(-c3ccc(O)cc3O)cs2)cc1OC	-31%	-1%	.	.	?	?	-5%	20%
CCOC(=O)c1c(C)noc1-c1ccc(Br)o1	-1%	4%	.	.	0%	?	0%	24%
COc1ccc(OC(C)C(=O)N2CCc3ccccc3C2)cc1 (stereo not given)	3%	2%	1.5%	-9%	?	?	-4%	-20%
CN1CCN(S(=O)(=O)c2ccc(NC(=O)COc3ccccc3Cl)cc2)CC1	1%	9%	.	.	3%[46.1 µM]	-2%[46.1 µM]	0%	1%
CCOc1ccc(N(CC(=O)NCc2ccccc2Cl)S(=O)(=O)c2c(C)[nH]c(=O)[nH]c2=O)cc1	-3%	3%	-1.5%	-11%	11%[46.1 µM]	-1%&-1%[46.1 µM]	4%	5%&0%
COc1ccc(Cl)cc1NC(=S)Nc1ccccc1C	1%	-6%	.	.	9%	9%[46.1 µM]	0%	37%[activator]
COC(CN(C)C(=O)c1ccc(CS(=O)(=O)c2ccccc2C)o1)OC	-3%	18%	.	.	-16%[46.1 µM]	5%[46.1 µM]	3%	-1%
CSc1cc(-c2ccccc2)n(Cc2ccccc2Cl)c(=O)c1C#N	0%	1%	1.8%	?	?	?	5%	0%
Oc1ccc(-c2cccc(-c3ccc(O)cc3)c2)cc1	-106%	2%	.	.	.	.	-19%	51%[activator]
Clc1cccc(-c2csc(Nc3cccnc3)n2)c1	-7%	-7%	.	.	?	11%	-3%	52%[activator]
CC(=O)c1ccc(NC(=O)c2ccc(NC(=O)c3ccco3)cc2)cc1	18%	0%	.	.	7%[46.1 µM]	3%[46.1 µM]	-4%	-12%
CC(=O)c1cccc(NC(=O)Nc2cccs2)c1	9%	1%	-6.2%	-24%	?	19%	-1%	42%[activator]
CC(=O)N1CCN(c2cccc(C)c2C)CC1	-18%	-11%	2.8%	10%	-3%	?	?	34%[activator]
CCC(Oc1ccccc1)C(=O)Nc1nc2c(s1)C(=O)CC(C)(C)C2 (stereo not given)	0%	-2%	-3.0%	-5%	11%	-11%	2%	-13%
O=C(NCC1CCCO1)c1cccc(NS(=O)(=O)c2ccc(Br)cc2)c1 (stereo not given)	.	5%	.	.	?	-14%	1%	-24%
Cc1ccc(NC(=O)Cn2c(=O)n(Cc3nc(-c4ccccc4)no3)c(=O)c3ccccc32)c(C)c1	.	.	-1.5%	-17%	14%[46.1 µM]	.	.	-17%
COC(=O)c1cc2n(n1)CCN(Cc1cccc(OC)c1)C2=O	.	1%	.	.	6%	?	5%	-16%

Bioassay records from PubChem.
